Source: PubChem (several laboratories)
YopH PTP inh – blocks Yersinia enterocolitica YopH tyrosine phosphatase; fluorescence Ex485/Em525; inhibition, %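 (about 10 µM by stock and volumes)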; hit rate 0.16% among 140,000; AID 898;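 active means inhibition of 50% or more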;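 further: controls were vehicle for no effect and minimum signal wells for full effect; inactives centre near -20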
Arbovirus anti – antivirals against arbovirus infection. hit rate 0.37% among 200,000. inhibition, % at 10 µM. AID 1251. arbovirus infection cell-based antiviral screen;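 active means inhibition from about 30%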;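 further: bluetongue infection of BSR cells; cell survival read as ATP light after 72 h; 0% = infected wells without compound and 100% = uninfected wells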
Mtb bLac sens – beta-lactam sensitization of Mtb H37Rv; inhibition, % at 25 µM; hit rate 0.27% among 330,000; M. tuberculosis H37Rv growth with meropenem, percent inhibition; hits of this screen are not shown here;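 active means about 74% or more and at least 40 points above the plate without the antibiotic, then above 30% in a dose series; inconclusive means first-round hits that could not be retested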;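 further: growth measured after seven days incubation then overnight dye step; 0% = bacteria only wells and 100% = bacteria with antibiotic; twin plates without the antibiotic show which effects depend on it; some results filed as inactive read as strong as hits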
Mtb growth – M. tuberculosis H37Rv growth inhibitors, H37Rv strain (AID 1626); hit rate 0.95% among 220,000; inhibition, % at 10 µM, or IC50 in µM where a hit was titrated; M. tuberculosis H37Rv growth inhibition; higher % means a stronger effect;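 active means confirmed in a dose series; inconclusive means inhibition above 80% but not taken into the dose series; inactive means below 80% or under 30% at every dose of the series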;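 further: bacteria incubated seven days before Alamar blue readout; 0% = bacteria only wells and 100% = bacteria with antibiotic wells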
RecA intein inh – blocks M. tuberculosis RecA intein splicing; P9WHJ3; cell-free RecA intein splicing, fluorescence; inhibition, %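 (about 9 µM by stock and volumes)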; hit rate 0.75% among 290,000; AID 2221; in the data active means inhibition above about 30%; inconclusive means no clear call, values can overlap the other calls;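 further: 0% = vehicle wells and 100% = reference inhibitor control wells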
Target sequence (P9WHJ3 whole entry, looked up): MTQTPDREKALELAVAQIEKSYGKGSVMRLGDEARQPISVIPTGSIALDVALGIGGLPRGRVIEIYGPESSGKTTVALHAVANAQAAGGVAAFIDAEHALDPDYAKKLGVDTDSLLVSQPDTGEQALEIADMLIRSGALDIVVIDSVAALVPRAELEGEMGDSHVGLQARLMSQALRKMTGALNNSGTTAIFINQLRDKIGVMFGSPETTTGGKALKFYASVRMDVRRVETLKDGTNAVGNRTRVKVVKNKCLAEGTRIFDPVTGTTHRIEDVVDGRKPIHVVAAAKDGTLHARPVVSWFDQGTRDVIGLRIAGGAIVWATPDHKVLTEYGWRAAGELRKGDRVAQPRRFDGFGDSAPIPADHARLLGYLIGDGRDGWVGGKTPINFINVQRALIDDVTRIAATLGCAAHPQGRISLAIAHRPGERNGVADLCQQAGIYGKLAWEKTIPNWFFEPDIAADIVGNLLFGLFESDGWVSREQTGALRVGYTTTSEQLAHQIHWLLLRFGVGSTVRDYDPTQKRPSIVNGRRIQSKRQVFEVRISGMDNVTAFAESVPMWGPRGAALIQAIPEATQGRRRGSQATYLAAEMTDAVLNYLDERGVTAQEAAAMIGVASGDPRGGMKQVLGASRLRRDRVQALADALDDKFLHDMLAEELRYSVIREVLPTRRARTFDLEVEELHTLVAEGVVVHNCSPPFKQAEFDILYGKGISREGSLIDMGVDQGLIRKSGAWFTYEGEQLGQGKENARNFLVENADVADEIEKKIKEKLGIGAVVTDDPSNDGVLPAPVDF
Arbovirus anti repeat – further read-out of Arbovirus anti, marked with its call; inhibition, %; measured here: 10K subset replicate screen; many hits read low in the repeat;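 first of two repeat runs on a subset; 0% = infected and 100% = uninfected wells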
* marks the source's active call; other numbers are inactive results; ? = inconclusive; nt = not tested or not shown. Some of the compounds tested; the hit share may differ from the screen's.

The opening 23 compounds, to show the layout:
SMILES	YopH PTP inh	Arbovirus anti	Mtb bLac sens	Mtb growth	RecA intein inh	others
NC(Cc1ccc(OC(F)F)cc1)C(=O)O (centres undefined)	nt	nt	-4	7%	-0.8
COc1ccc(-c2coc3cc(O)cc(O)c3c2=O)cc1	-46	-11	11	-2%	1.7
CCCCN1Cc2cc(C(=O)c3cc(F)ccc3O)cnc2NC1=O	-43	3	7	9%	3.9
CCc1cc2ccc(C)cc2nc1SCC(=O)N1CCN(C(=O)c2ccco2)CC1	-31	3	32	4%	8.6
CCNC(=S)NCCN1CCOCC1	-22	2	0	3%	-1.7
Cc1ccccc1NC(=O)c1cc(S(=O)(=O)Nc2cccc(C(=O)O)c2)ccc1Cl	nt	nt	-1	nt	-1.7
CCCCN1C2CCCC1CC(NC(=O)c1ccc(OC)c(OC)c1)C2 (centres undefined)	-35	8	-7	-8%	nt
CC(C)CC(NC(=O)c1ccc(Cl)cc1)C(=O)O (centres undefined)	1	4	8	-21%	-2.5
OCCN1CCN(Cc2nc(-c3cccc(Cl)c3)no2)CC1	nt	3	-3	5%	2.3
CC(C)(C)c1ccc(SCC(N)=O)cc1	15	-1	93	14%	1.2
Cc1ccc(S(=O)(=O)NCCc2nc3ccccc3[nH]2)cc1	nt	nt	3	nt	-5.1
CC1CCN(CCCNC(=O)Cn2ncc3c([nH]c4ccccc43)c2=O)CC1	nt	nt	-4	nt	-1.1
CCOC(=O)CSc1nnc(CNc2ccc(Cl)cc2)n1-c1ccccc1	-40	-1	-4	0%	2.5
CCOC(=O)c1cnn(-c2ccccc2)c1NC(=O)CSc1nnc(-c2cccs2)n1CC	-17	6	-18	-9%	2.3
COc1cccc(CNC(=O)CSc2ccc(-c3ccco3)nn2)c1	nt	1	-7	-8%	-6.8
O=C(NCc1cccnc1)Nc1ccccc1Cl	nt	nt	-12	nt	-0.9
Cc1cccc(NC(=O)c2ccc(S(=O)(=O)NCc3cccnc3)cc2)c1	nt	nt	2	nt	0.7
Cc1ccc(CN(CC(=O)NCCc2ccccc2)C(=O)CCCC(=O)Nc2cc(C)on2)cc1	-31	-5	1	-4%	-1.7
CC(C)C[C@H](CO)Nc1nc(N(C)c2cccc(Cl)c2)c2ncn(C(C)C)c2n1	nt	nt	52	-1%	8.6
Cc1cccc(-c2n[nH]c([N+](=O)[O-])n2)c1	-23	2	-1	-4%	2.3
O=C(CCSCc1cccc(Cl)c1)NCCc1ccc(Cl)cc1	-15	0	-7	3%	3.7
Cc1ccc(Cl)cc1N1CCN(S(=O)(=O)c2ccc3[nH]c(=O)c(=O)[nH]c3c2)CC1	nt	-1	-4	-6%	10.0
CC1(NC(=O)NCCCCCCNC(=O)NC2(C)CCS(=O)(=O)C2)CCS(=O)(=O)C1 (centres undefined)	nt	nt	-2	nt	-4.2

The listing, previewed entries included:
SMILES	YopH PTP inh	Arbovirus anti	Mtb bLac sens	Mtb growth	RecA intein inh	others
NC(Cc1ccc(OC(F)F)cc1)C(=O)O (centres undefined)	nt	nt	-4	7%	-0.8
COc1ccc(-c2coc3cc(O)cc(O)c3c2=O)cc1	-46	-11	11	-2%	1.7
CCCCN1Cc2cc(C(=O)c3cc(F)ccc3O)cnc2NC1=O	-43	3	7	9%	3.9
CCc1cc2ccc(C)cc2nc1SCC(=O)N1CCN(C(=O)c2ccco2)CC1	-31	3	32	4%	8.6
CCNC(=S)NCCN1CCOCC1	-22	2	0	3%	-1.7
Cc1ccccc1NC(=O)c1cc(S(=O)(=O)Nc2cccc(C(=O)O)c2)ccc1Cl	nt	nt	-1	nt	-1.7
CCCCN1C2CCCC1CC(NC(=O)c1ccc(OC)c(OC)c1)C2 (centres undefined)	-35	8	-7	-8%	nt
CC(C)CC(NC(=O)c1ccc(Cl)cc1)C(=O)O (centres undefined)	1	4	8	-21%	-2.5
OCCN1CCN(Cc2nc(-c3cccc(Cl)c3)no2)CC1	nt	3	-3	5%	2.3
CC(C)(C)c1ccc(SCC(N)=O)cc1	15	-1	93	14%	1.2
Cc1ccc(S(=O)(=O)NCCc2nc3ccccc3[nH]2)cc1	nt	nt	3	nt	-5.1
CC1CCN(CCCNC(=O)Cn2ncc3c([nH]c4ccccc43)c2=O)CC1	nt	nt	-4	nt	-1.1
CCOC(=O)CSc1nnc(CNc2ccc(Cl)cc2)n1-c1ccccc1	-40	-1	-4	0%	2.5
CCOC(=O)c1cnn(-c2ccccc2)c1NC(=O)CSc1nnc(-c2cccs2)n1CC	-17	6	-18	-9%	2.3
COc1cccc(CNC(=O)CSc2ccc(-c3ccco3)nn2)c1	nt	1	-7	-8%	-6.8
O=C(NCc1cccnc1)Nc1ccccc1Cl	nt	nt	-12	nt	-0.9
Cc1cccc(NC(=O)c2ccc(S(=O)(=O)NCc3cccnc3)cc2)c1	nt	nt	2	nt	0.7
Cc1ccc(CN(CC(=O)NCCc2ccccc2)C(=O)CCCC(=O)Nc2cc(C)on2)cc1	-31	-5	1	-4%	-1.7
CC(C)C[C@H](CO)Nc1nc(N(C)c2cccc(Cl)c2)c2ncn(C(C)C)c2n1	nt	nt	52	-1%	8.6
Cc1cccc(-c2n[nH]c([N+](=O)[O-])n2)c1	-23	2	-1	-4%	2.3
O=C(CCSCc1cccc(Cl)c1)NCCc1ccc(Cl)cc1	-15	0	-7	3%	3.7
Cc1ccc(Cl)cc1N1CCN(S(=O)(=O)c2ccc3[nH]c(=O)c(=O)[nH]c3c2)CC1	nt	-1	-4	-6%	10.0
CC1(NC(=O)NCCCCCCNC(=O)NC2(C)CCS(=O)(=O)C2)CCS(=O)(=O)C1 (centres undefined)	nt	nt	-2	nt	-4.2
COc1ccccc1CCC(=O)N1CCC(n2nccc2NC(=O)C2CCOC2)CC1 (centres undefined)	nt	nt	-10	nt	2.7
CC(=O)N(C(C)=O)N1C(=O)/C(=C/c2ccc(Cl)cc2)SC1=S	nt	0	-7	-1%	1.0
CCc1ccc(OCC(=O)N/N=C(\C)c2ccc3c(c2)OCCO3)cc1	-28	0	-2	-1%	0.0
Cc1ccc(S(=O)(=O)NCC(C)NS(=O)(=O)c2ccccc2[N+](=O)[O-])cc1 (centres undefined)	nt	nt	-8	nt	0.8
COc1ccc(CNC(=O)CN2CCC(n3nnc4cc(F)ccc43)CC2)cc1	nt	-6	1	-4%	-1.2
COc1ccc(C2NC(=O)CS2)cc1OC (centres undefined)	-8	3	-8	4%	-0.7
CN(CC(=O)Nc1ccccc1Br)CC(=O)Nc1ccccc1C(F)(F)F	nt	nt	14	nt	1.7
CCc1nc(N)c(C#N)c(-c2ccccc2OC)c1C	-57	-1	59	-4%	-0.2
CCOc1ccccc1NC(=O)Cc1coc2cc(C)ccc12	4	-7	3	-5%	2.0
CCOc1ncccc1C(=O)Nc1nc(SC)ns1	nt	5	8	2%	-1.2
CCn1c(SCC(=O)c2ccccc2)nnc1-c1cccs1	5	-1	0	?	5.2
Cn1c(SCc2ccccc2)nnc1-c1ccncc1	-6	3	-19	2%	-2.3
COc1cc(C2NC(=S)NC(C)=C2C(=O)Nc2cc(C)cc(C)c2)ccc1O (centres undefined)	nt	nt	-11	-2%	1.0
COc1ccc(-c2nc(S(=O)(=O)c3ccc(C)cc3)c(N3CCCC3)o2)cc1	25	5	0	2%	-2.6
Cc1ccc(N2CC(C(=O)Oc3cccc(N4C(=O)CCC4=O)c3)CC2=O)cc1 (centres undefined)	-5	4	-10	-6%	16
O=C(Nc1ccc(S(=O)(=O)Nc2ccc(Cl)cc2)cc1)C1CCCO1 (centres undefined)	-32	16	-8	6%	-1.2
COc1ccc(CCNC(=O)CN(c2cc(C)cc(C)c2)S(=O)(=O)c2c(C)noc2C)cc1OC	nt	nt	2	nt	-2.1
CCOC(=O)c1ccccc1NC(=O)CSc1nnc(C)c(=O)[nH]1	nt	nt	-6	nt	0.2
O=C(CCNS(=O)(=O)c1cccc2nsnc12)Nc1ccc2c(c1)OCCO2	-4	-2	1	16%	3.5	Arbovirus anti repeat=0
Nc1nc(Nc2ccc(Cl)cc2)c(NC=O)c(=O)[nH]1	nt	nt	-16	nt	7.4
CSc1nc(C)cc(OCCNS(=O)(=O)c2cc(C)ccc2C)n1	-40	1	-7	-2%	0.1
COc1ccc(CCC(=O)Nc2nnc(C(C)(C)C)s2)cc1	nt	nt	2	nt	-1.1
O=C(CCC1CCCN(C(=O)c2ccc3c(c2)OCCO3)C1)NCc1ccccc1F (centres undefined)	nt	4	-7	-6%	-0.8
Cc1c(Cl)c([N+](=O)[O-])nn1Cc1ccc(C(=O)N/N=C\c2cccc(Br)c2)o1	-15	-17	94	5%	0.8
C=C(C)C(=O)Nc1cccc(C2=NOC3(C2)C[C@H](C(N)=O)N(C(=O)CC)C3)c1 (some centres undefined)	nt	nt	-8	-5%	-1.5
Cn1c(=O)[nH]c(=O)c2c1nc(NCc1ccccc1)n2CC(O)c1ccccc1 (centres undefined)	-50	0	0	0%	2.2
Nc1cc(=O)[nH]c(SCC(=O)c2ccc(O)cc2O)n1	nt	nt	3	nt	-1.9
Following part.
SMILES	YopH PTP inh	Arbovirus anti	Mtb bLac sens	Mtb growth	RecA intein inh	others
CCc1ccccc1NC(=O)N1CCC(NC(=O)C(Cc2ccccc2)NC(C)=O)CC1 (centres undefined)	nt	9	-2	-3%	2.9
Cc1cccc(N2CCN(C(=O)CN3C(=O)NC(C)(C)C3=O)CC2)c1C	nt	nt	-3	-17%	0.3
CCCn1c(NC(=O)C2CCN(C(=O)c3ccccc3C)CC2)nc2ccccc21	nt	nt	30	nt	-1.1
Cc1n[nH]c(C)c1CCCOc1ccccc1	8	4	nt	-18%	4.5
O=C(CNC(=O)c1ccccc1)OCC(=O)N1c2ccccc2Sc2ccccc21	19	-2	1	9%	4.5
CC1CCc2cc(F)cc3c(O)c(C(=O)NCc4ccco4)c(=O)n1c23 (centres undefined)	10	-1	nt	nt	-1.8
COc1ccccc1NC(=O)Nc1ccccc1C(=O)NCCCN1CCOCC1	nt	nt	-6	5%	-0.8
COc1ccc(C2(CNC(=O)c3cccc([N+](=O)[O-])c3)CCOCC2)cc1OC	-47	2	2	-8%	0.5
Cc1ccc(-c2nnn(CC(=O)N(Cc3cccs3)C(C(=O)NC3CCCC3)c3ccncc3)n2)cc1 (centres undefined)	-14	-9	-8	2%	5.2
Fc1ccc(NC(=S)N/N=C/c2ccc(F)c(F)c2)cc1	nt	-5	-5	-2%	-1.0
CCOc1ccc(OCC)c(NC(=O)CSc2nnc(-c3cccnc3)o2)c1	-3	-3	10	-18%	1.3
Cc1cccc(NC(=O)c2sc(Cl)nc2-c2ccccc2)c1	-19	-3	-8	9%	-0.3
O=C(CCN1C(=O)/C(=C\c2ccccc2)SC1=S)N1CCOCC1	nt	nt	5	nt	1.7
Cc1ccc(C(=O)N2CC3(C)CN(C(=O)c4ccc(C)cc4)CC(C)(C2)C3=O)cc1	-23	4	-4	-7%	0.0
COc1cccc(CN2CCC(n3nccc3NC(=O)CCOc3ccccc3)CC2)c1O	nt	nt	-7	nt	1.8
C[n+]1c(-c2ccccc2)cc(CCCCc2cc(-c3ccccc3)[n+](C)c(-c3ccccc3)c2)cc1-c1ccccc1	nt	-11	98	?	14
Cc1ccc(CN(C(=O)Cc2cccs2)C(C(=O)NC2CCCC2)c2ccncc2)cc1 (centres undefined)	-23	-5	6	7%	1.1
O=NC1=C(c2c(O)[nH]c3ccccc23)CCCC1	-40	-6	6	-5%	-2.0	Arbovirus anti repeat=-10
CCc1ccc(OCC(=O)OCC(=O)c2ccc3c(c2)NC(=O)CO3)cc1	-2	7	5	-2%	-2.1
Cc1ccc(NC(=O)Cn2c(=O)c3cccn3c3ccccc32)c(Cl)c1	nt	nt	-5	nt	-1.2
Cc1cc(/C=C(/C#N)c2cccc(Cl)c2)c(C)n1C	-31	-9	14	nt	-8.8
COc1cccc(C2CC(c3cccs3)=NN2C(=O)CSC2=NCCS2)c1OC (centres undefined)	nt	nt	0	nt	18
O=C(Nc1ccc(OC(F)F)cc1)c1ccccn1	nt	0	-9	-5%	5.0
O=C(c1ccccc1NS(=O)(=O)c1ccc(F)cc1)N1CCc2ccccc21	-31	-1	1	2%	2.0
COc1ccc(C(=O)C2CCN(CC(=O)Nc3ccc(C)cc3)CC2)cc1	nt	nt	-1	nt	4.7
CN(C(=O)c1cccs1)c1ccc(OCC(=O)Nc2ccc(C(=O)O)cc2)cc1	nt	nt	-2	-11%	0.2
CC(=O)N1CCN(c2ccccc2NC(=O)c2cccs2)CC1	nt	nt	?	nt	-1.3
